Mtb MbtI inh – blocks the Mycobacterium tuberculosis siderophore enzyme MbtI; P9WFX0; AID 493033; hit rate 0.89% among 100,000; inhibition, %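 (about 17 µg/mL by stock and volumes)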; purified MbtI enzyme, fluorescence intensity read-out;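 active = above 50% in both replicates, above 80% if mildly self-fluorescent; inactive = the rest, strongly fluorescent compounds included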;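 also: 0% = mean of negative and 100% = mean of positive controls; one replicate is shown; some compounds called inactive have numbers as strong as hits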
Target sequence (P9WFX0 whole entry, looked up): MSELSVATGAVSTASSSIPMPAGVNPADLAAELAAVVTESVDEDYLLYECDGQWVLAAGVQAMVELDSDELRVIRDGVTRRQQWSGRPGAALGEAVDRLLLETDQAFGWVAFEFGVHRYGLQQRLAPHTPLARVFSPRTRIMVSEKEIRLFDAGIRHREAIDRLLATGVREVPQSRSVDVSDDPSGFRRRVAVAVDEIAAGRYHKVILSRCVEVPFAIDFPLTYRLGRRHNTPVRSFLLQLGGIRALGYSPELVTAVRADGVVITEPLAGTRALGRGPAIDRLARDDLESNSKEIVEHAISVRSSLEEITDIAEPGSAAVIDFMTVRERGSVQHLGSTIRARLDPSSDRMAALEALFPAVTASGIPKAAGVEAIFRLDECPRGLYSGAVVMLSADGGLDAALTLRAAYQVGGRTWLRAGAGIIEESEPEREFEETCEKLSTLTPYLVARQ
Polio RdRp inh – inhibitors of poliovirus RNA polymerase binding and polymerization; P03300; % elongation, % (compound at 16.7 µg/mL); hit rate 0.66% among 150,000; poliovirus polymerase elongation, fluorescence polarization; hits give low values; in the data active = % elongation below about 90%; also: some results filed as inactive read as strong as hits
Mtb MenB inh – blocks the Mycobacterium tuberculosis MenB enzyme. P9WNP5. MenB enzyme assay, absorbance read-out; some hits fall short of the stated cut. inhibition, %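 (about 12 µg/mL by stock and volumes)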. hit rate 0.43% among 100,000. AID 540299;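 active = mean of two replicates above 30%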;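 also: 0% = no compound and 100% = wells with inactive enzyme; the first replicate is given; strong numbers were not always called active; inactives centre near -10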
Target sequence (P9WNP5 whole entry, looked up): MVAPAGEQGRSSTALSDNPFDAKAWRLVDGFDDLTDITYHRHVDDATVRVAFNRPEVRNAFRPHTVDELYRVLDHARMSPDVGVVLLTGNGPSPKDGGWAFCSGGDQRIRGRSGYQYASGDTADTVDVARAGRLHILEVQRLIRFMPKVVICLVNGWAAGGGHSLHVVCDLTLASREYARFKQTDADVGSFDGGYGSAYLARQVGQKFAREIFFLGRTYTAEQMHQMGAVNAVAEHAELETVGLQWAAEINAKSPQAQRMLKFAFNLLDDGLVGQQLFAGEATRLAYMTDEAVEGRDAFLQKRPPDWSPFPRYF
Polio RdRp inh intensity – second read-out of Polio RdRp inh, no call of its own (marks repeat the call); % elongation; measured here: total intensity read-out; formula for this scale not given here;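 total fluorescence in place of polarization; lower means less elongation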
Numbers without * were called inactive; i = inactive; x = not tested or not shown.

SMILES	Mtb MbtI inh	Polio RdRp inh	Polio RdRp inh intensity	Mtb MenB inh
CSc1nc(S(=O)(=O)c2ccc(C)cc2)c(N2CCOCC2)s1	18	101	100	-24
NNC(=O)Cn1nc2n(c1=O)-c1ccccc1SC2	0	99	103	9
CCS(=O)(=O)N(C)c1ccc(C(N)=O)cc1	-2	102	101	11
COC(=O)c1ccc(NC(=O)C(c2ccccc2)c2ccccc2)cc1	-6	99	106	x
O=C(CCNC(=O)c1ccco1)NC12CC3CC(CC(C3)C1)C2	2	104	103	-24
Cc1cccc2cc(C#N)c(SCC#N)nc12	-1	101	103	-7
COC(=O)c1ccc2c(=O)n(-c3ccc(F)c(Cl)c3)c(SCC(=O)C(C)(C)C)nc2c1	15	102	102	11
CC(C)N(CC(N)=O)C(=O)COc1ccccc1Cc1ccccc1	-6	x	x	-20
Cc1ccc2cc3cc(C(=O)NCc4ccc(F)cc4)oc3nc2c1	-57	100	104	-17
CN(C)S(=O)(=O)c1cccc(C(=O)OCCN2C(=O)c3ccccc3C2=O)c1	-13	100	109	-29
CCCCN1C(=S)NS(=O)(=O)c2ccccc21	-3	100	102	-5
CN1C(=O)C(O)(c2sc(N)nc2-c2ccccc2)c2ccccc21 (configuration not stated)	9	103	91	1
Cc1noc(C)c1COC(=O)C(c1ccccc1)c1ccccc1	0	106	110	-8
O=C(CSc1nc(O)cc(=O)[nH]1)Nc1ccccc1	-1	103	98	-10
O=C1CCN(C(C(=O)Nc2ccc(F)cc2)c2ccccc2)CC1 (configuration not stated)	-2	x	x	6
CCCCOc1ccc(C(=O)NO)cc1OC	2	104	101	1
CCNc1nc2cc(C)nn2c2ccccc12	105	104	99	-6
O=C1CSC(c2cn(-c3ccccc3)nc2-c2ccccc2)N1CCCN1CCOCC1 (configuration not stated)	9	89	104	-20
CC(C)C(NC(=O)Cc1n[nH]c(=O)c2ccccc12)c1ccc2c(c1)OCCCO2 (configuration not stated)	7	105	106	6
COc1ccccc1C(=O)N/C(N)=N/c1nc2ccccc2o1	18	83	139	-20
CCc1ccc(NS(=O)(=O)c2ccc3c(c2)C(C)(C)C(=O)N3C)cc1	-8	101	104	0
CCOc1ccccc1OC(=O)NN	-13	100	108	-25
CCc1ccc(NC(=O)c2ccc3c(=O)n4c(nc3c2)CCCCC4)cc1	-10	102	98	-14
Cc1cc(C)n(C(=O)c2ccncc2)n1	-28	99	102	4
CCOC(=O)c1cc(-c2ccc(N(CC)CC)cc2)no1	13	131	160	-263
COc1cc(C#N)ccc1OCC(=O)NCC(C)C	-29	96	92	12
CC1CCCCC1NC(=O)NC(=O)CSc1nc2c(cnn2-c2ccccc2)c(=O)[nH]1 (configuration not stated)	0	103	108	9
Cc1nnc(NC(=O)CSc2nnc(Cc3cccn3C)n2-c2ccc(F)cc2)s1	13	100	99	-9
O=C(O)CCN1C(=O)COc2ccc(Cl)cc21	-3	106	101	-48
COc1ccccc1NC(=O)c1cc2ccccc2oc1=Nc1ccccc1F	-4	102	106	-17

Seven entries drawn at random from those above:
SMILES	Mtb MbtI inh	Polio RdRp inh	Polio RdRp inh intensity	Mtb MenB inh
COc1ccccc1NC(=O)c1cc2ccccc2oc1=Nc1ccccc1F	-4	102	106	-17
O=C1CSC(c2cn(-c3ccccc3)nc2-c2ccccc2)N1CCCN1CCOCC1 (configuration not stated)	9	89	104	-20
CCc1ccc(NC(=O)c2ccc3c(=O)n4c(nc3c2)CCCCC4)cc1	-10	102	98	-14
Cc1nnc(NC(=O)CSc2nnc(Cc3cccn3C)n2-c2ccc(F)cc2)s1	13	100	99	-9
CCCCOc1ccc(C(=O)NO)cc1OC	2	104	101	1
CCNc1nc2cc(C)nn2c2ccccc12	105	104	99	-6
COc1ccccc1C(=O)N/C(N)=N/c1nc2ccccc2o1	18	83	139	-20

Returning to the listing; the three compounds before the break are reprinted first.
SMILES	Mtb MbtI inh	Polio RdRp inh	Polio RdRp inh intensity	Mtb MenB inh
Cc1nnc(NC(=O)CSc2nnc(Cc3cccn3C)n2-c2ccc(F)cc2)s1	13	100	99	-9
O=C(O)CCN1C(=O)COc2ccc(Cl)cc21	-3	106	101	-48
COc1ccccc1NC(=O)c1cc2ccccc2oc1=Nc1ccccc1F	-4	102	106	-17
CC(=O)N1CCc2cc(C(=O)CN3CCOCC3)ccc21	2	101	102	1
CCN(Cc1ccccc1)C(=O)CSc1ccccc1C(=O)O	1	99	94	x
Cc1onc(-c2ccccc2Cl)c1C(=O)NCC1CCN(C(=O)OC(C)(C)C)CC1	-6	101	102	-18
O=C(CSc1nc2ccccc2n1CCc1ccccc1)c1cccs1	5	103	109	-1
O=C(NCCCN1CCOCC1)c1cc(-c2ccc(F)cc2)nc2ccccc12	30	102	94	x
Cc1cc(NC(=O)C2CCCCC2)no1	-6	101	103	-5
C=CCn1c(=O)[nH]c(=O)n(CC=C)c1=O	-5	105	101	-1
COc1ccc(C2OCc3ccccc3N2C(=O)c2cccc(OC)c2)cc1 (configuration not stated)	x	103	97	-8
CC(C)C(c1nnnn1Cc1ccccc1)N1CCN(c2ccccc2)CC1 (configuration not stated)	-1	98	101	32*
CC(C)OCC(O)Cn1c(N2CCCCCC2)nc2c1c(=O)n(C)c(=O)n2C (configuration not stated)	3	102	103	-1
O=C1Nc2ccccc2C(O)(C(=O)N2CCCCC2)N1c1ccccc1 (configuration not stated)	x	104	109	-5
Fc1cccc(-c2csc(COc3ccccc3Cl)n2)c1	-7	103	109	-9
Cc1cc(-c2csc(-c3ccccc3)n2)c(C)n1-c1cccc(S(=O)(=O)N2CCOCC2)c1	-30	110	113	0
O=C1C=C(NCc2ccccc2)C2(CCCCC2)O1	x	101	108	-15
CN(Cc1nc2ccccc2c(=O)[nH]1)Cc1nc2scc(-c3cccs3)c2c(=O)[nH]1	-18	101	105	-58
CCc1ccc(C(=O)CN2C(=O)C(C)N(c3ccc(C)cc3)C2=O)cc1 (configuration not stated)	-20	103	109	-2
CCN1C(=O)/C(=C/C=C2/Sc3ccccc3N2CC)SC1=S	5	104	99	7
Cc1cc(C=C2C(=O)OC(C)(C)OC2=O)c(C)n1-c1ccc(I)cc1	4	101	96	-35
CCn1c(C(=O)N2CCCC(C(=O)NC(C)C34CC5CC(CC(C5)C3)C4)C2)cc2sccc21 (configuration not stated)	0	99	102	2
CC(C)Cc1csc(NC(=O)/C=C/c2ccccc2)c1C(=O)O	8	100	95	x
CN(CC(=O)NCc1ccccc1)S(=O)(=O)c1ccc2nc(-c3ccccc3)[nH]c2c1	5	98	100	1
Cc1onc(-c2ccccc2)c1C(=O)Oc1cccnc1	-131	105	105	-2
CN(C(=O)CC1(CC(=O)O)CCCC1)C1CCCCC1	-9	102	108	x
Nn1c(SCc2cc(=O)oc3cc4c(cc23)CCC4)nnc1-c1cccnc1	-6	107	102	-20
O=C(CN1C(=O)/C(=C/c2ccccc2F)Oc2ccccc21)N1CCOCC1	20	99	101	-4
O=C(CSC1CCCC1)c1cccs1	5	103	103	x
CC(C)Oc1ccc(C(=O)O)cc1	0	103	97	x
Clc1ccc(N2CCN(C3=Cc4ccccc4CC3)CC2)cc1Cl	4	105	102	-2
CCOC(=O)c1c(C)oc2c1c(C=NC1CCS(=O)(=O)C1)c(O)c1ccccc12 (configuration not stated)	1	99	98	-5
O=S(=O)(c1ccc(Oc2ncnc3sccc23)c(Cl)c1)N1CCOCC1	-5	106	102	-5
Cc1cc(C(=O)NCc2cc(F)cc3c2OCOC3)nn1C	-17	104	114	-4
O=C(CSc1nc2ccccc2[nH]1)c1nnc(-c2ccc(Cl)cc2)o1	-4	106	106	-13
COc1ccccc1-c1cc(=O)n(CC(=O)N2CCC(C(N)=O)CC2)c2c1CCCC2	8	99	103	-4
Cc1c(NC(=O)C23CC4CC(C)(CC(C)(C4)C2)C3)c(=O)n(-c2ccccc2)n1C	0	x	x	2
Cc1ccc(NC(=S)NCCCO)c(C)c1	-4	100	102	1
CCCSc1nc2cc(C)c(C)cc2n1CC(C)O (configuration not stated)	-6	105	107	x
CCNC(=S)Nc1sc2c(c1C#N)CCC(C)C2 (configuration not stated)	-9	108	111	-13
Cc1ccc(C)c(NC(=O)CC(Cc2ccccc2)C(=O)O)c1 (configuration not stated)	x	105	109	-6
Cc1[nH]c2ccc(C(=O)NCCN3CCCCCC3)cc2c1C	-20	100	104	-5
O=C(COC(=O)C1CCC1)Nc1ccc(F)c(Cl)c1	35	104	101	-12
Cc1cc(N2C(=O)CCC2=O)n(-c2ccccc2)n1	-19	105	100	-8
Cc1ccc(C)c(S(=O)(=O)N2CC3(C)CC2CC(C)(C)C3)c1 (configuration not stated)	-14	104	106	-12
CCN(CCO)c1ccc(NC(=S)Nc2ccc(OC)cc2)cc1	13	100	105	-19
Clc1ccc(N2Cc3ccccc3C2)cc1Cl	x	100	103	-3
O=C(Oc1ccc(C(=S)N2CCCCC2)cc1)c1ccccc1	45	99	100	-56
CCNc1cc2oc(=O)cc(C(F)(F)F)c2cc1C	-30	67	161	-14
c1cc2c(cc1N1CCNCC1)OCCO2	3	102	101	18
COc1cccc(-c2nn(CN3CCCC3)c(=S)n2C)c1	x	96	105	-20
CC(=O)OC1CCS(=O)(=O)C1 (configuration not stated)	-11	102	103	-1
CCOC(=O)c1nc(C)sc1-c1ccnn1C(=O)c1ccc(OC)cc1	-26	100	98	-4
O=C(COn1nnc2ccccc21)NCC1CCCCC1	6	101	107	-18
CCc1ccc(NS(=O)(=O)c2ccc3[nH]c(=O)ccc3c2)cc1	1	100	105	-11
C=C(C)[C@H]1CC=C(C(=O)O)CC1	-23	101	100	1
O=C(NC1=NCCS1)c1ccccn1	-5	101	101	-20
CC1CN(C(=O)CCC2CCCCC2)CC(C)O1 (configuration not stated)	-6	101	101	-19
O=C(NCc1ccccn1)NCc1noc2ccccc12	12	100	102	-23
CS(=O)(=O)Nc1cccc(C(=O)OCC(=O)Nc2ccccc2F)c1	24	103	106	-17
COC(=O)CC1=NN(c2nc(C)cc(C)n2)C(=O)C1	-6	104	104	-39
CC1(C)CC(=O)C(C(N)=NC(=O)c2ccccc2)=C(O)C1	4	99	100	-14
Cc1cc(NC(=O)CSc2nnc(COc3ccc(Cl)cc3C)n2C2CCCCC2)no1	9	101	99	16
Following part
SMILES	Mtb MbtI inh	Polio RdRp inh	Polio RdRp inh intensity	Mtb MenB inh
CCC(=O)NCC1COc2ccccc2O1 (configuration not stated)	-3	101	103	5
Cc1ccc(-c2cc(C(=O)Nc3cccc(C#N)c3)c3ccccc3n2)o1	8	101	96	-8
O=C(CN1c2cccc3cccc(c23)S1(=O)=O)N1CCCCC1	5	100	100	x
CC(C)(C)OC(=O)N1CCC(C(=O)N2CCCCC2)CC1	-1	100	94	1
COc1ccc(S(=O)(=O)Nc2cccc(-c3nnco3)c2)cc1OC	-8	102	106	-4
O=C(O)/C=C/c1cc(Br)ccc1OC(F)F	3	99	105	15
Cn1ccsc1=NC(=O)CCCc1c[nH]c2ccccc12	3	107	113	-8
Cc1ccc(S(=O)(=O)N2CCC(C(=O)N=Nc3c(O)[nH]c4ccccc34)CC2)cc1	-1	100	102	2
N#C/C(=N\Nc1ccc(F)cc1)C(N)=S	64	105	102	-348
O=C(NC(NC1=NCCS1)(C(F)(F)F)C(F)(F)F)c1ccco1	x	99	102	5
COc1ccc(C2Nc3ccccc3-c3cc(C)nn32)cc1 (configuration not stated)	112	102	103	-14
O=C(O)c1cc(C2CC2)on1	1	104	101	18
CCn1cc(C(=O)N2CCCc3ccccc32)c(=O)c2ccc(C)nc21	1	102	97	8
c1coc(CNCC2CCCO2)c1 (configuration not stated)	13	99	101	-9
NNC(=O)CCN1CCN(Cc2ccccc2)CC1	-8	106	107	-26
O=C(CC12CC3CC(CC(C3)C1)C2)OCC(O)CN1CCOCC1 (configuration not stated)	6	100	105	-29
CCNC(=O)Nc1ccccc1C(=O)OC	x	98	101	-17
CCOC(=O)c1ccc(-n2c(=S)[nH]c3ccccc32)cc1	i	100	100	-40
COC(=O)c1c(C)[nH]c(C(=O)C(C)OC(=O)c2cc(S(=O)(=O)N3CCOCC3)ccc2F)c1C (configuration not stated)	-14	106	106	-34
CCn1c(=O)c2cc(C(=O)N(CCC(C)C)Cc3ccco3)sc2c2ccccc21	11	100	104	-47
Cc1nn(-c2ccccc2)c(C)c1P(=O)(c1ccccc1)N(C)C (configuration not stated)	3	99	107	6
O=C1O[C@H](C(O)CO)[C@H](O)C1O (some centres not stated)	-11	101	103	5
O=C(C1=C2Sc3ccccc3N2CC(C(=O)c2ccccc2)C1)c1ccccc1 (configuration not stated)	13	104	118	-9
Cc1oc(C)c2c(=O)ccc3c(c12)OC(N)=C(C#N)C3c1ccc(Br)cc1 (configuration not stated)	13	104	110	-12
CN(Cc1ccccc1)C(=O)Nc1noc2c1COc1ccccc1-2	21	103	100	-19
O=C(/C=C\c1ccco1)Nc1ccc(N2CCN(C(=O)c3ccccc3)CC2)cc1	-21	100	103	0
CCc1ccc(-c2nc(C(N)=O)c3[nH]c(=O)n(-c4ccccc4)c3n2)cc1	-38	100	108	3
CC1CC(=O)N(CC(=O)N2CCCCC2)c2ccccc2S1 (configuration not stated)	2	103	104	-4

From PubChem BioAssay
